# Bioassay records deposited in PubChem by National Center for Advancing Translational Sciences (NCATS).
# LASV entry inh – blocks Lassa virus binding to or entry into cells | Lassa virus pseudotype entry inhibition, cell reporter; control for the full effect not named in the record | Potency, µM (highest dose often 37.9 µM), without a hit: top-dose activity change, negative = inhibition, most hits filed as inhibitors | 300,000 tested, 1.2% active; active means well fitted inhibition curve with a large enough effect; inconclusive means small, poorly fitted or top-dose-only effect, or effect the other way; inactive means flat fitted curve, though single readings scatter; tested in HEK293 cells; note: % is set by controls: 0 for no effect and ±100 for the full control effect; nearly all actives have a fitted effect of over 50% in size; luciferase read-out
# 2A StopGo – FMDV 2A StopGo reporter, luciferase signal; AID 1159524; 410,000 tested, 1.2% active; Potency, µM (series often up to 57.9 µM), without a hit: at the highest dose signal change, negative = less light; human cells with a luciferase reporter of 2A StopGo recoding; control for the full effect not named in the record; active = well fitted falling curve with a large enough effect; inconclusive = small, poorly fitted or top-dose-only effect; inactive = no such curve, though single readings can be large or run the other way; tested in HEK293T cells; note: % is set by controls: 0 for no effect and ±100 for the full control effect; nearly all actives have a fitted effect of over 45% in size; luciferase light after 4 h
# Marburg entry inh – inhibitors of Marburg virus binding or cell entry; Marburg virus pseudotyped entry inhibition, cell reporter; control for the full effect not named in the record; about a third of the inactives were read at about 46 µM; Potency, µM (top dose mostly 37.8 µM), inactives show at the top dose activity change, negative = inhibition, hits mostly inhibitors; 300,000 tested, 1.8% active; AID 540276; active = well fitted inhibition curve with a large enough effect; inconclusive = small, poorly fitted or top-dose-only effect, or effect the other way; inactive = flat fitted curve, though single readings scatter; tested in HEK293 cells; about a fifth of its hits are not listed in these tables; note: % is set by controls: 0 for no effect and ±100 for the full control effect; luciferase read-out
# Cruzain Triton – blocks cruzain activity in presence of Triton detergent. purified cruzain, Z-FR-AMC fluorescence, 0.01% Triton. P25779. 200,000 tested, 0.43% active. Potency, µM, for the others: max response, negative = inhibition, actives largely listed as inhibitors;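 note: plate controls were neutral wells for no effect and buffer without enzyme for full effect; nearly all actives have a fitted effect of over 40% in size; top concentration of the series not given in the record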
# Target sequence (P25779 123-467 limits assumed): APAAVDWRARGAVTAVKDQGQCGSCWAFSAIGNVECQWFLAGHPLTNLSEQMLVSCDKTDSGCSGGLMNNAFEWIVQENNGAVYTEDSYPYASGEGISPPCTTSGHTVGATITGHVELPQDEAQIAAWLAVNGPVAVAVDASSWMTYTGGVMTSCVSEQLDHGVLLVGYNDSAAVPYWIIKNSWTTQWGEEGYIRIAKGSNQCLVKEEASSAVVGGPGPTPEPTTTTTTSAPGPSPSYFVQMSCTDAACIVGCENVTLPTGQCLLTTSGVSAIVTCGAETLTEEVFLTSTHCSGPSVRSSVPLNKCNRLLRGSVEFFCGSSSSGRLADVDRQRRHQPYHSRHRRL
#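 Sodium acetate buffer (100 mM, pH 5.5) containing 5 mM DTT and 0.01% Triton X-100 hosted 1.5 nM cruzain and test compound for 15 min at room temperature. Cleavage of 2 uM Z-FR-AMC was then tracked by fluorescence.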
# Cruzain noTriton – blocks cruzain activity in detergent-free assay; P25779; Potency, µM, without a hit: max response, negative = inhibition, actives largely listed as inhibitors; AID 1476; purified cruzain, Z-FR-AMC fluorescence, no detergent; 200,000 tested, 2.3% active;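 note: plate controls were enzyme without inhibitor for no effect and buffer without enzyme for full effect; nearly all actives have a fitted effect of over 40% in size; top concentration of the series not given in the record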
#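 Detergent-free condition (0.00005% Triton X-100) in acetate buffer pH 5.5 with DTT. 1.5 nM enzyme and compound were pre-mixed 15 min, then 2 uM Z-FR-AMC substrate added; reaction progress from fluorescence change between first and third reads (60 s).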
# SARS PLpro yeast – SARS-CoV PLP inhibition in yeast. 330,000 tested, 0.19% active. AID 485353. Potency, µM (highest dose often 32.9 µM), for the others: at the highest dose activity, positive = growth rescue. S. cerevisiae expressing SARS-CoV PLpro, growth rescue; control for the full effect not named in the record; active means well fitted rising curve with a large enough effect; inconclusive means small, poorly fitted or top-dose-only effect; inactive means no such curve, though single readings can be large or run the other way; note: 0% is about no effect; nearly all actives have a fitted effect of over 55% in size; growth read by luminescence after 48 h
# NS1 inh – inhibitors of influenza NS1 protein function; S. cerevisiae slowed by influenza A NS1, growth recovery by OD600; 270,000 tested, 0.4% active; Potency, µM (top dose mostly 46.1 µM), for inactives: top-dose activity, positive = more growth; active means well fitted rising curve with a large enough effect; inconclusive means small, poorly fitted or top-dose-only effect; inactive means no such curve, though single readings can be large or run the other way; note: nearly all actives have a fitted effect of over 50% in size
#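 Growth recovery, yeast-based: influenza A NS1 expressed in S. cerevisiae causes slow growth, and suppressors are detected by OD600. The parent strain without NS1 is used as positive control.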
# RE007 growth inh – less growth of the S. pombe RE007 Vpr strain. Potency, µM (top dose mostly 92.2 µM), for the others: at the highest dose activity change, negative = less growth. S. pombe RE007 Vpr strain, BacTiter-Glo ATP luminescence, 24 h; control for the full effect not named in the record. 360,000 tested, 0.21% active. AID 651644; active = well fitted falling curve with a large enough effect; inconclusive = small, poorly fitted or top-dose-only effect; inactive = no such curve, though single readings can be large or run the other way;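 note: % is set by controls: 0 for no effect and ±100 for the full control effect; nearly all actives have a fitted effect of over 50% in size; the assay follows cell death caused by Vpr and the record does not say whether a fall means rescue or toxicity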
#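 Fission yeast strain RE007, carrying one chromosomally integrated HIV-1 vpr copy, was seeded at OD 0.01 in PMG+AL medium with 23 nL pinned compound. After 24 h at 30 °C and 99% humidity, viability was read by BacTiter-Glo luminescence.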
# Active calls of the source: *; ? = inconclusive; . = no result given; & = joins results of further samples; [ ] = dose if it differs, or a comment. Unless noted, calls come from the whole dose curve; as a rule, active = well fitted curve in the direction sought with a large enough effect; inconclusive = small, poorly fitted or top-dose-only effect, or another doubt; inactive = no such curve, though single readings can be large; an effect the other way counts as inactive or inconclusive. Potency is the fitted concentration of half-maximal effect.
SMILES,LASV entry inh,2A StopGo,Marburg entry inh,Cruzain Triton,Cruzain noTriton,SARS PLpro yeast,NS1 inh,RE007 growth inh
O=C(/C=C/Nc1ccccc1C(=O)O)c1cccs1,12%,7%,?,-2.5%,6%,15%,-20%,15%
Cc1cc(C)cc(CSc2nnc(C)c(=O)[nH]2)c1,5%,6%,16%,2.7%,-8%,-5%,-14%,7%
COCCNC(=O)C1CC(=O)N(C2CCCC2)C1 (stereo not given),9%,.,11%,1.3%,-3%,-5%,1%,-9%
CCS(=O)(=O)N1CCN(S(=O)(=O)c2ccc(S(=O)(=O)NC3CC3)cc2)CC1,17%[46.1 µM],-2%,8%[46.1 µM],.,.,?,0%,1%
COc1ccc(Cl)cc1NC(=O)CN(C)C(=O)Cc1ccc2c(c1)CCC2,?,-4%,-30%[46.1 µM],.,.,-3%,-27%,-2%
CC1CCCC(C)N1C(=O)COC(=O)/C=C/c1ccc(Br)o1 (stereo not given),0%,19%,20%&20%,.,.,-4%,.,-14%
Cc1noc(C)c1COC(=O)c1ccc(-c2nc3ccccc3s2)s1,?,-7%,-30%,-7.7%,9%,1%,-16%,-3%
CC1Sc2ccc(S(=O)(=O)CCC(=O)N3CCN(c4cccc(Cl)c4)CC3)cc2NC1=O (stereo not given),.,25µM*,.,.,.,0%,-2%,-2%
COc1ccc(CCNC(=O)c2ccc3c(c2)N=C(C)c2ccccc2S3)cc1OC,-16%[46.1 µM],0%,-21%[46.1 µM],-5.3%,?,.,.,.
COc1ccc(C(C#N)c2ccc(Cl)nn2)cc1 (stereo not given),0%,9%,12%[46.1 µM],.,.,-2%,.,2%
CCCCNC(=O)Nc1cc(C)on1,4%,25%,2%,3.3%,-2%,-1%,0%,-3%
C/C(=N\NC(=O)c1cccc([N+](=O)[O-])c1)c1cccs1,12%,43%[activator],7%[46.1 µM],.,.,-1%,1%,-15%
Cc1c(Br)c([N+](=O)[O-])nn1CC(=O)Nc1ccc(C(C)C)cc1,-23%,-7%,-10%,.,.,5%,.,3%
CCOC(=O)c1c(-c2ccccc2)csc1NC(=S)NC(=O)c1ccccc1,?,-27%,?,-1.0%,?,-1%,11%,-4%
COc1cccc(C(=O)NCCNC(=O)c2ccccn2)c1,14%[46.1 µM],15%,-15%[46.1 µM],.,.,-3%,?,-1%
CC1CC(C)CN(C(=O)COc2cccnc2[N+](=O)[O-])C1 (stereo not given),-9%[46.1 µM],-9%,10%[46.1 µM],.,.,0%,.,-12%
CN(Cc1ccccc1)C(=O)Cn1cccc1C(=O)c1ccccc1,-2%,-3%,11%,-0.4%,4%,-4%,1%,-4%
COc1ccc(-c2nnc(SCCOc3cccc(C)c3)n2N)cc1,?,-13%,6%,-6.0%,-20%,3%,-5%,-4%
COc1ccc(S(=O)(=O)N(CC(=O)NCCc2ccccc2)c2ccc(Cl)cc2)cc1,1%[46.1 µM],-3%,1%[46.1 µM],-1.7%,7%,.,.,.
COc1ccccc1C(=O)NC(=O)CSc1nnc(C)s1,27%[46.1 µM],4%,-1%[46.1 µM],.,.,-3%,8%,9%
Cc1ccc(-n2c(=S)[nH]c3c(oc4ccccc43)c2=O)cc1C,23%,4%,-7%,-21%,-11%,17%,15%,8%
Cc1cccnc1NC1(C(F)(F)F)N=C2SCCN2C1=O (stereo not given),-15%[46.1 µM],4%,?,.,.,2%,.,-6%
CC(C)c1ccc(OCc2cc(=O)n3c(-c4ccccc4)csc3n2)cc1,5%[46.1 µM],-7%,1%[46.1 µM],-4.3%,-14%,.,.,.
Cc1ccc(S(=O)(=O)N(CC(=O)N/N=C/c2cccc(C)c2)c2cccc3cccnc23)cc1,?,0%,?,-2.4%,-7%,.,8%,1%
CC(C)(C)OC(=O)CNC(=O)c1nc[nH]c1C(=O)NCC(=O)OC(C)(C)C,.,-10%,.,.,.,-2%,-3%,27%
CC(CS(=O)(=O)c1cccc2cccnc12)N1CCCCC1 (stereo not given),2%,-16%,13%[46.1 µM],0.9%,-6%,0%,?,-3%
Cc1cc(C)nc(SC(C)C(=O)O)n1 (stereo not given),14%,-22%,?,-2.0%,22%,13%,?,1%
CC(=O)C(c1ccccc1)C(c1ccccc1)C(C)[N+](=O)[O-] (stereo not given),1%,-18%,-9%,.,.,2%,1%,-3%
CCOc1ccc(S(=O)(=O)N2CCCC(C(=O)NCCN3CCOCC3)C2)cc1Cl (stereo not given),7%,17%,12%,.,.,-2%,9%,1%
Cc1nc2nc(SCC(=O)N(C)Cc3ccccc3)nn2c(C)c1Cc1ccccc1Cl,6%[46.1 µM],0%,-8%[46.1 µM],-9.4%,1%,.,.,.
COc1ccc(NC(=O)c2cc(C)nc3ccccc23)c(OC)c1,-10%,-23%,?,.,.,-3%,.,3%
CC1=C(C(=O)OCC2CCCCC2)C(c2ccc(Cl)cc2)CC(=O)N1 (stereo not given),-8%[46.1 µM],?,?,-14%,9%,.,.,.
CC(C)(C)C1CCc2c(sc(NC(=O)c3cc(-c4ccc(F)cc4)on3)c2C#N)C1 (stereo not given),-2%[46.1 µM],-13%,?,0.8%,-16%,.,.,.
COc1ccc(C(=O)N2CCC3(CC2)OCCO3)cc1,-5%[46.1 µM],-2%,0%[46.1 µM],.,.,1%,-1%,18%
COC(=O)c1ccccc1NC(=O)Cn1cnc2ccc(S(=O)(=O)N3CCC(C)CC3)cc2c1=O,-7%,-8%,1%&-9%,-4.4%,23%,4%,10%,-8%
COc1ccc(NC(=O)NNC(=O)C(C)Oc2ccc(C(C)C)cc2)c(OC)c1 (stereo not given),.,6%,.,.,.,-3%,-62%,6%
COc1ccc(-n2c(=S)[nH]c3ncccc3c2=O)cc1,.,2%,.,.,.,1%,-1%,4%
CCC1=C(OC(=O)N(CC)CC)N2C(=O)OC(=NCC3CC3)[C@]2(Cc2ccccc2)[C@H]2C1=CC[C@H]1C(=O)N(CC)C(=O)[C@H]12,.,0%,.,-3.5%,?,2%,-5%,0%
Cc1ccc(-c2nn(-c3ccccc3)cc2CNCc2ccccc2)cc1,?,41%[activator],?,.,.,-2%,-3%,0%
COc1ccc(-c2cc(C(C)=O)c(C)n2CCC(=O)Nc2cccc(C)c2C)cc1,11%[46.1 µM],-11%,.,0.1%,-1%,.,.,.
CC(=O)Nc1ccc(S(=O)(=O)/N=C2\SCCN2S(=O)(=O)c2ccc(NC(C)=O)cc2)cc1,-6%,24%,4%[46.1 µM],2.1%,-1%,-8%,?,-14%
CCC1S/C(=N/N=C/c2ccco2)N(Cc2ccccc2C)C1=O (stereo not given),.,-7%,.,.,.,-4%,-5%,18%
COC(=O)c1ccc(CN2[C@H](C(=O)OC)C[C@@]3(O)[C@@H](O)[C@@H](O)[C@@H](O)C[C@@H]23)cc1,.,-13%,.,3.9%,-7%,1%,1%,5%
Cc1ccc2c(c1)C(Cc1ccccc1F)C(=O)N2 (stereo not given),-2%[46.1 µM],-19%,21%[46.1 µM],-3.9%,3%,.,.,.
CC(C)=CCCC(C)CN1CCC(n2nccc2NC(=O)c2ccc3c(c2)OCO3)CC1 (stereo not given),.,-20%,.,.,.,10%,-1%,-12%
CCCCn1nnnc1SCC(=O)Nc1ccc(C)cc1,3%,12%,4%[46.1 µM],-6.7%,-3%,-4%,-18%,3%
CC(=O)OC(/C(O)=C(\C#N)c1nc2ccccc2[nH]1)c1ccccc1 (stereo not given),-8%,.,-21%,-5.6%,?,2%,-3%,7%
CC(=O)c1ccc(NC(=O)CSC(C)C)cc1,45%[14.3 µM],45%[activator],?,0.8%,-6%,2%,-3%,7%
CC(=O)NC1C(OCc2ccccc2)OC2COC(c3ccccc3)OC2C1OCC(=O)O (stereo not given),-2%,8%,?,.,.,0%,8%,0%
O=C(O)CC(NCc1ccco1)C(=O)OCCc1ccccc1 (stereo not given),-1%,-4%,1%,-6.9%,2%,-2%,25%,185%
# Going on with the list:
SMILES,LASV entry inh,2A StopGo,Marburg entry inh,Cruzain Triton,Cruzain noTriton,SARS PLpro yeast,NS1 inh,RE007 growth inh
O=C1Cc2cc(NS(=O)(=O)c3ccc([N+](=O)[O-])cc3)cc3c2N1CCC3,6%,-17%,1%,.,.,-1%,.,0%
CCC(=O)N/N=c1/sc2ccccc2n1C,-3%,1%,3%[46.1 µM],.,.,4%,.,27%
O=C(NCc1ccccc1)C1CC(=O)N(c2ccc(OCC(=O)N3CCOCC3)cc2)C1 (stereo not given),1%,1%,-1%[46.1 µM],.,.,2%,1%,12%
Nc1c(C(=O)c2ccccc2)oc2ccc(Br)cc12,18%,64%[activator],24%,-0.1%,-19%,-20%,-8%,-23%
O=C(Nc1ccc(F)cc1)[C@H](CSCc1ccccc1)N1Cc2ccccc2C1=O,10%[46.1 µM],42%[activator],-10%[46.1 µM],-2.3%,0%,.,.,.
O=c1[nH]c2ccc(S(=O)(=O)N3CCN(c4ccc(F)cc4)CC3)cc2o1,.,-2%,.,.,.,0%,-2%,4%
CNc1ccc([N+](=O)[O-])cc1C(=O)O,.,1%,.,.,.,0%,-1%,8%
Cc1ccc(C(c2sc3nc(C)nn3c2O)N2CCN(c3ccc(F)cc3)CC2)cc1 (stereo not given),3%,13%,-1%,-0.3%,?,-9%,9%,-11%
COCCNC(=O)C1CCC(CNS(=O)(=O)c2ccc(F)cc2)CC1 (stereo not given),.,3%,.,.,.,2%,0%,6%
Cc1ccc(Nc2ccc3cc(S(=O)(=O)N4CCCCC4)ccc3n2)cc1F,-5%[46.1 µM],2%,.,-2.8%,?,.,.,.
O=C(CN1CCN(S(=O)(=O)c2ccccc2[N+](=O)[O-])CC1)Nc1ccc(N2CCOCC2)cc1,.,-21%,.,.,.,-1%,8%,-2%
O=C(O)C1Cc2ccccc2CN1C(=O)c1ccccc1 (stereo not given),5%,1%,11%,1.7%,0%,1%,-3%,-6%
CCCC(C)NC(=O)c1nc(-c2ccccc2)n(-c2ccccc2)n1 (stereo not given),-1%,0%,-20%[46.1 µM],-1.6%,5%,-2%,-11%,3%
CCOC(=O)c1ccc(NC(=O)CCc2nc(-c3ccccc3)no2)cc1,?,20µM*,?,-7.2%,-4%,-8%,-59%,-23%

# The order is random (roughly 4.8% active in at least one column).
